Screening data as filed in PubChem BioAssay.
miR-21 reporter – qHTS Assay for Modulators of miRNAs and/orActivators of miR-21. HeLa miR-21 FLuc reporter, luciferase, 48 h. Potency, µM (highest dose often 38.3 µM), for inactives: top-dose reporter change, positive = more light. 340,000 tested, under 10 active. AID 2288, 2010; active = well fitted rising curve with a large enough effect; inconclusive = small, poorly fitted or top-dose-only effect; inactive = no such curve, though single readings can be large or run the other way;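 note: % of control where 0% means no effect; miR-21 action dims this reporter so a rising signal means less miR-21 action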
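Luminescence from a firefly luciferase reporter carrying a miR-21 binding site downstream, stably expressed under a CMV promoter in HeLa cells that make miR-21 endogenously, reports miRNA modulation after 48 h compound exposure up to approximately 40uM final.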
* hit, by the source's call; ? = inconclusive. An excerpt. The share of hits here may be higher or lower than overall.

miR-21 reporter | smiles
0% | Cc1ccccc1Cn1c(=O)n(CCCCC(=O)NCc2ccccc2Cl)c(=O)c2ccccc21
0% | O=C(CS(=O)(=O)c1cccc2nsnc12)N1CCN(c2ccccc2F)CC1
3% | O=S(=O)(NCC(c1cccs1)S(=O)(=O)c1ccccc1)c1ccc(F)c(C(F)(F)F)c1 (stereo not drawn)
25% | CCOC(=O)c1ccc(NC(=O)c2ccc3c(c2)CCN3S(=O)(=O)c2ccc(Cl)cc2)cc1
0% | Cc1ccc(NC(=O)CSc2nc3c(c(=O)[nH]2)CN(Cc2ccc4c(c2)OCO4)CC3)cc1C
0% | O=C(CSc1nc(=O)n(Cc2ccco2)c2c1CCC2)Nc1cccc(F)c1
4% | CCC1CCCCN1CCCNC(=O)c1sc2nc(C)cc(C)c2c1-n1cccc1 (stereo not drawn)
-4% | CN(C)c1ccc(C(CNS(=O)(=O)c2ccc(Cl)cc2)N2CCOCC2)cc1 (stereo not drawn)
-8% | Cc1ccccc1C(=O)Nc1c(C)nc2ccccn2c1=O
-8% | CCS(=O)(=O)N1N=C(c2ccc(C)cc2)CC1c1cc2ccc(OC)cc2nc1Cl (stereo not drawn)
-1% | COC(=O)c1ccccc1NC(=O)Cn1c(=O)n(-c2cccc(OC)c2)c(=O)c2c(C)c(C(=O)N(C)C)sc21
-5% | Cc1ccc(Nc2c(-c3ccc(C)cc3)nc3c(C)cccn23)cc1
3% | COc1ccc(S(=O)(=O)N2CCN(Cc3nc4ccc(C)cc4o3)CC2)cc1
-7% | Cc1cccc(CNC(=O)CCn2c(=O)c3cccn3c3ccc(F)cc32)c1
22% | CCc1nc2ccccc2n1CCCCOc1ccccc1C
0% | COc1ccc(S(=O)(=O)NCCc2cn3ccsc3n2)cc1
-3% | O=C(Nc1cccc(Cl)c1Cl)c1cc(S(=O)(=O)N2CCCCC2)ccc1F
-59% | COC(=O)COc1ccc2oc(-c3ccc(OC)cc3)cc(=O)c2c1
-33% | Cc1cccc(CC(=O)Nc2c(C(=O)Nc3cccc(F)c3)oc3ccccc23)c1
? | Cc1ccc2sc(-c3ccc(N)cc3)nc2c1
1% | Cc1ccc2c(=O)cc(C(=O)Nc3ccc(S(=O)(=O)N4CCC(C)CC4)cc3)oc2c1C
0% | COc1ccc(CCNC(=O)CCc2c(C)nc3c(c(C)nn3-c3ccc(C)cc3)c2C)c(OC)c1
2% | CCCCc1cc(=O)oc2cc(C)c3c(C(C)(C)C)coc3c12
? | COc1ccccc1N1CCN(c2ncnc3c2cnn3-c2cc(Cl)ccc2C)CC1
-44% | Cc1c(C(=O)NCc2ccc(Cl)cc2)oc2ccc3c(c12)C(=O)CC(C)(C)O3
1% | O=C(Cn1c(=O)n(Cc2ccc3c(c2)OCO3)c(=O)c2ccccc21)Nc1cccc(Cl)c1
-1% | CCc1ccc(NCc2cc3cc4c(cc3n(CC(=O)Nc3ccc(F)cc3)c2=O)OCCO4)cc1
? | O=C(Nc1ccc(Cl)cc1)c1ccc2oc(=O)n(Cc3ccccc3)c2c1
1% | O=c1c2oc3ccccc3c2n(Cc2ccccc2F)c(=O)n1Cc1ccccc1
3% | COCCn1c(C)cc(O)c(C(c2ccc(C)cc2)N2CCCCC2)c1=O (stereo not drawn)

The closing two compounds of the section before lead into the next.
miR-21 reporter | smiles
1% | O=c1c2oc3ccccc3c2n(Cc2ccccc2F)c(=O)n1Cc1ccccc1
3% | COCCn1c(C)cc(O)c(C(c2ccc(C)cc2)N2CCCCC2)c1=O (stereo not drawn)
0% | CCS(=O)(=O)N1CCc2cc(C(=O)N3CCN(c4ccccc4OC)CC3)ccc21
-26% | COc1ccc(-c2nn(CC(=O)NC3CCCC3)c3c2cnc2ccc(F)cc23)cc1
-7% | O=C(NCc1ccccc1)C(=O)Nc1ccc2nc3n(c(=O)c2c1)CCCCC3
? | CCOC(=O)c1cnc2c(OC)cccc2c1Nc1cccc(O)c1
-53% | COc1ccc(C(=O)Nc2nnc(C(C)C)s2)cc1OC
19% | COc1ccc(Cl)cc1NC(=O)C1CCN(S(=O)(=O)c2ccc(F)cc2)CC1
17% | O=C(NCc1ccccc1)c1ccc(CSc2nc3cccnc3n2Cc2ccccc2)cc1
2% | CCCCn1cc(S(=O)(=O)c2ccccc2)c(=O)c2cc(F)c(N3CCC(C)CC3)cc21
12% | COc1ccccc1CNC(=O)c1cc2ccc3ccc(C)[nH]c3c2n1
7% | CCc1ccc(-c2nc(CS(=O)CC(=O)NCCc3ccc(Cl)cc3)c(C)o2)cc1 (stereo not drawn)
-2% | CCOc1ccc(NC(=O)CN(C)S(=O)(=O)c2ccc3c(c2)c(=O)n(C)c(=O)n3C)cc1
2% | COc1ccc(-n2ncc3c(NC(C)(C)CO)ncnc32)cc1
-3% | COc1cccc(N2CCN(C(=O)Cn3cnc4onc(-c5ccc(F)cc5)c4c3=O)CC2)c1
-3% | COc1cc(C2NC(=O)c3c(sc4c3CCN(C)C4)N2)cc(Br)c1OC(=O)c1ccc(C)cc1 (stereo not drawn)
-5% | COCCNC(=O)c1ccc2c(c1)N(Cc1cccc(Cl)c1)C(=O)c1ccccc1S2(=O)=O
-1% | COc1ccc(NC(=O)CSCc2cc(=O)c3cc(C)ccc3[nH]2)cc1
0% | COc1ccc(Cl)cc1NCc1nnc2n1CCCCC2
-6% | CCOC(=O)c1ccc(NC(=O)CSc2nc3c([nH]c4ccccc43)c(=O)n2C)cc1
0% | Cc1ccc2c(CNCc3cccc(Cl)c3)c(C(=O)O)n(Cc3ccc(F)cc3Cl)c2c1
-18% | COc1cc(NC(=O)c2nc(-c3ccncc3)no2)cc(OC)c1OC
1% | CC(C)CCNC(=O)CCC(=O)N1Cc2ccccc2Oc2ncccc21
-3% | O=C1OCC2=C1C(c1cccc(Cl)c1)CC(=O)N2c1ccc(C(F)(F)F)cc1 (stereo not drawn)
2% | Cc1nc2ccc(S(=O)(=O)CCC(=O)Nc3ccc(F)cc3C)cc2s1
4% | CCOC(=O)c1c(NC(=O)C2c3ccccc3Oc3ccccc32)sc2c1CCC(CC)C2 (stereo not drawn)
-29% | CC(=O)c1nn(-c2ccc(OC(F)(F)F)cc2)nc1Nc1ccccc1
-5% | CCOC(=O)C(=O)NCC(c1cccnc1)N1CCN(c2ccccc2)CC1 (stereo not drawn)
14% | CCOc1ccc(Nc2c(S(=O)(=O)c3ccc(C)cc3)cnc3ccc(F)cc23)cc1
11% | COc1ccc(NC(=O)N2CCN(S(=O)(=O)c3ccc4c(ccn4C)c3)CC2)c(OC)c1
3% | COCCn1c(SCc2ccccc2F)nc2c([nH]c3ccccc32)c1=O
21% | CCOC(=O)N1CCN(Cc2nc3cc(NC(=O)C(C)C)ccc3n2C(C)C)CC1
-17% | Cc1ccc(Cl)cc1Nc1nc2ccccc2c2nncn12
4% | CCOC(=O)c1ccc(NC(=O)Cn2c(=O)n(-c3ccc(C)cc3)c(=O)c3c2cnn3C)cc1
-8% | CCNC(=O)c1c(NC(=O)Cc2coc3cc(C)ccc23)sc2c1CCCC2
-1% | CCC(=O)N1c2ccccc2CC1C(=O)NCc1cccc(OC)c1OC (stereo not drawn)
4% | O=C(CCS(=O)(=O)c1cc(Br)cc2c1N(C(=O)C1CC1)CC2)N1CCN(c2ccccc2)CC1
-71% | Clc1ccccc1-c1nnc(COc2ccccc2)o1
9% | CC1(C)C(=O)N(CC(=O)Nc2ccc(Cl)cc2)c2ccccc21
-7% | CCOc1nc(-c2ccc(C)cc2)ccc1-c1noc(-c2ccccc2F)n1
-5% | CCCN(CCC)C(=O)c1c2c(nc3ccccc13)C(=O)N(C1CCCCC1)C2
-6% | O=C(Cc1ccc(F)cc1)Nc1cccc(-c2nc3cccnc3s2)c1
0% | Cc1ccc(C)c(S(=O)(=O)c2cnc(SCC(=O)Nc3ccc(F)cc3F)[nH]c2=O)c1
-2% | CCCCN(C)C(=O)c1ccc2c(c1)N(Cc1cccc(F)c1)C(=O)c1ccccc1S2
-14% | COc1ccc(-c2nc(C)c(CCNC(=O)Cc3ccc(F)cc3)s2)cc1OC
2% | CCC(=O)Nc1cc(C(=O)NCc2ccc(C)cc2)ccc1S(=O)(=O)c1ccc(C)cc1
24% | CCOC(=O)c1ccccc1NC(=O)CSc1cn(CC(=O)N2CCCCCC2)c2ccccc12
14% | CC(CNC(=O)Cn1c(-c2cccs2)cc2ccccc21)c1ccccc1 (stereo not drawn)
2% | Cc1ccc(C(=O)c2oc3ccccc3c2NC(=O)Cc2coc3c(C)c(C)ccc23)cc1
-4% | CCOc1ccc(-c2cn3c(n2)sc2cc(C(=O)NC(C)C45CC6CC(CC(C6)C4)C5)ccc23)cc1 (stereo not drawn)
17% | CCc1ccccc1NS(=O)(=O)c1ccc2nc(-c3ccccc3)[nH]c2c1
17% | O=C(NCCc1cccs1)c1ccc(Cn2c(SCc3ccccc3)nc3cccnc32)cc1
-2% | O=S(=O)(NCCS(=O)(=O)N1CCN(c2ccccc2)CC1)c1ccc(Br)cc1
-7% | COc1ccccc1CNC(=O)c1cnc2c(-c3ccccc3)c(C)nn2c1C
-1% | CCOC(=O)c1cc2c(=O)n3ccccc3nc2n(Cc2ccco2)c1=NC(=O)c1ccc(C(C)(C)C)cc1
-37% | Cc1cc(N2CCN(C)CC2)nc2ccc(NC(=O)Nc3ccccc3Br)cc12
-2% | CN(C)S(=O)(=O)N(CC(=O)Nc1ccc(C(F)(F)F)cc1)c1ccccc1
0% | CC(=O)Nc1nonc1-c1nnc(SCC(=O)Nc2ccc(C)cc2C)n1C
-51% | COc1ccccc1C(=O)n1nc(-c2ccco2)nc1NCc1ccc(Cl)cc1
-50% | CCC(C)NC(=O)c1cc(-c2cccc(OC)c2)on1 (stereo not drawn)
0% | COc1cccc(N2CCN(C(=O)CCS(=O)(=O)c3ccc4c(c3)CC(=O)N4C)CC2)c1
-1% | COc1ccc(C)cc1NC(=O)c1c(C)oc2ncn(CC(C)C)c(=O)c12

Carrying on:
miR-21 reporter | smiles
-4% | COc1ccc(-n2ncc(C(=O)NCCN3CCOCC3)c2C2CCN(C(=O)OC(C)(C)C)CC2)cc1
14% | O=C(C1CCN(S(=O)(=O)c2cccc3nonc23)CC1)N1CCN(c2ccccc2F)CC1
6% | COc1ccc(CNC(=O)C2CCCCN2S(=O)(=O)c2ccc(F)cc2)cc1 (stereo not drawn)
-14% | Cc1ccc(-c2nc3c(cnn3-c3ccccc3)c(=O)n2-c2cccc(Cl)c2)cc1
10% | CCCCNC(=O)CSc1nc2n[nH]c(C)c2c(=N)n1-c1cccc(C)c1
-17% | O=C(CSc1nc(-c2cccs2)nc2cc(=O)[nH]n12)Nc1ccccc1F
-14% | COc1ccc(CNC(=O)C2CCN(S(=O)(=O)Cc3ccccc3)CC2)cc1
4% | CCc1ccc(NC(=O)Cn2c(=O)n(CCC(=O)NCCc3ccc(OC)c(OC)c3)c(=O)c3ccccc32)cc1
-5% | CCc1ccccc1NC(=O)c1sc2nc(C)cc(COC)c2c1N
11% | CCN(CC)c1ccc(C2C(C(N)=O)=C(C)Nc3nc(SCc4ccccc4Cl)nn32)cc1 (stereo not drawn)
1% | CCOC(=O)c1cccc(NC(=O)NCCc2c(C)nn(C)c2C)c1
3% | Cc1ccccc1C(=O)N1CCCCC1CCN1CCCCC1 (stereo not drawn)
? | Cc1cc(C)c(NC(=O)C2CCN(c3nc4ccccc4n4cccc34)CC2)c(C)c1
2% | COc1cc(C2C=C(C(=O)O)Nc3ncnn32)ccc1O (stereo not drawn)
-11% | Cc1cn2c(=O)cc(COC(=O)c3cccc(NC(=O)c4ccc(C(C)(C)C)cc4)c3)nc2s1
-2% | O=C(CCCn1c(=O)c2ccccc2n(CC(=O)Nc2cccc(Cl)c2)c1=O)NCc1ccc2c(c1)OCO2
5% | Cc1oc(-c2ccccc2Cl)nc1Cn1c(SCc2cccc(F)c2)nc2cccnc21
-9% | COc1ccc(NC(=O)c2c(NC(=O)COc3ccc(Cl)cc3)sc3c2CCCCC3)cc1
-11% | Nc1cc(=O)nc(SCC(=O)Nc2ccc(F)cc2)n1-c1cccc(Cl)c1
-1% | Cc1ccc2cccc(NC(=O)c3ccc(-c4ccc(Cl)cc4Cl)o3)c2n1
-4% | COc1cccc(-c2nc(SCc3cc(=O)c4cc(Cl)ccc4[nH]3)n[nH]2)c1

A draw from above in order of SMILES length, rising:
miR-21 reporter | smiles
3% | Cc1ccccc1C(=O)N1CCCCC1CCN1CCCCC1 (stereo not drawn)
2% | COc1cc(C2C=C(C(=O)O)Nc3ncnn32)ccc1O (stereo not drawn)
-5% | CCc1ccccc1NC(=O)c1sc2nc(C)cc(COC)c2c1N
1% | CCOC(=O)c1cccc(NC(=O)NCCc2c(C)nn(C)c2C)c1
6% | COc1ccc(CNC(=O)C2CCCCN2S(=O)(=O)c2ccc(F)cc2)cc1 (stereo not drawn)
5% | Cc1oc(-c2ccccc2Cl)nc1Cn1c(SCc2cccc(F)c2)nc2cccnc21
? | Cc1cc(C)c(NC(=O)C2CCN(c3nc4ccccc4n4cccc34)CC2)c(C)c1
-14% | Cc1ccc(-c2nc3c(cnn3-c3ccccc3)c(=O)n2-c2cccc(Cl)c2)cc1
-9% | COc1ccc(NC(=O)c2c(NC(=O)COc3ccc(Cl)cc3)sc3c2CCCCC3)cc1
14% | O=C(C1CCN(S(=O)(=O)c2cccc3nonc23)CC1)N1CCN(c2ccccc2F)CC1
-11% | Cc1cn2c(=O)cc(COC(=O)c3cccc(NC(=O)c4ccc(C(C)(C)C)cc4)c3)nc2s1
-4% | COc1ccc(-n2ncc(C(=O)NCCN3CCOCC3)c2C2CCN(C(=O)OC(C)(C)C)CC2)cc1
-2% | O=C(CCCn1c(=O)c2ccccc2n(CC(=O)Nc2cccc(Cl)c2)c1=O)NCc1ccc2c(c1)OCO2
4% | CCc1ccc(NC(=O)Cn2c(=O)n(CCC(=O)NCCc3ccc(OC)c(OC)c3)c(=O)c3ccccc32)cc1
